UUG fidelity: modulators of yeast start codon fidelity, primary screen, whole organism, S. cerevisiae, single point, plate reader; activity score, % at 18.7 µM; actives 0.13% (n = 350,000); S. cerevisiae UUG-firefly luciferase reporter, luminescence/redox ratio;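 active = replicate mean at a twofold rise or more, about +100% in these data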;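 also: firefly luciferase made from a UUG start codon reports start codon fidelity; reporter light over untreated wells divided by growth signal over untreated wells; some hits fall short of that in this replicate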
* hit, by the source's call.

A first look, two compounds:
UUG fidelity | molecule
-17 | C[C@@H]1CN([C@H](C)CO)C(=O)Cc2cc(NC(=O)Cn3cnnn3)ccc2O[C@@H]1CN(C)Cc1ccncc1
3 | CO[C@H]1CN(C)C(=O)c2cc(NS(C)(=O)=O)ccc2OC[C@@H](C)N(CC2CCCCC2)C[C@H]1C

Results (from the top)
UUG fidelity | molecule
-17 | C[C@@H]1CN([C@H](C)CO)C(=O)Cc2cc(NC(=O)Cn3cnnn3)ccc2O[C@@H]1CN(C)Cc1ccncc1
3 | CO[C@H]1CN(C)C(=O)c2cc(NS(C)(=O)=O)ccc2OC[C@@H](C)N(CC2CCCCC2)C[C@H]1C
-17 | CCC(=O)Nc1ccc2c(c1)OC[C@@H](C)N(Cc1ccccn1)C[C@@H](C)[C@H](OC)CN(C)C2=O
-5 | C[C@H](CO)N1C[C@H](C)[C@@H](CN(C)S(=O)(=O)c2ccccc2)OCc2ccccc2-c2c(n(C)c3ccccc23)C1=O
-5 | CCCNC(=O)C[C@@H]1CC[C@H]2[C@@H](COC[C@H](O)CN2C(=O)Nc2ccccc2OC)O1
34 | CO[C@H]1CN(C)C(=O)c2cc(NS(C)(=O)=O)ccc2OC[C@H](C)N(CC2CCCCC2)C[C@H]1C
-8 | CNC[C@H]1Oc2c(NC(=O)c3cc(C)nn3C)cccc2C(=O)N([C@@H](C)CO)C[C@@H]1C
-7 | CC(=O)N1[C@H](CN(C(=O)c2ccc(F)cc2)C(C)C)[C@H](c2ccccc2)[C@@H]1CO
2 | Cc1noc(C)c1NC(=O)N(C)C[C@H]1Oc2c(NS(=O)(=O)c3cccs3)cccc2C(=O)N([C@H](C)CO)C[C@H]1C
14 | C[C@@H]1CN([C@@H](C)CO)C(=O)c2cc(NC(=O)C3CC3)ccc2O[C@H]1CN(C)S(=O)(=O)c1ccccc1
-6 | CO[C@H]1CN(C)C(=O)c2ccc(NC(=O)C3CCCCC3)cc2OC[C@@H](C)NC[C@H]1C
-20 | O=C(O)C[C@@H]1C[C@@H]2c3cc(NC(=O)Nc4ccc(F)cc4)ccc3O[C@@H]2[C@H](CO)O1
-6 | O=C(C[C@@H]1C[C@H]2c3cc(NC(=O)Nc4ccccc4)ccc3O[C@H]2[C@H](CO)O1)NCc1cccc(F)c1
-1 | CO[C@@H]1CN(C)C(=O)c2cc(NS(C)(=O)=O)ccc2OC[C@H](C)N(S(C)(=O)=O)C[C@H]1C
-11 | CCOC(=O)CCC(=O)Nc1cc(S(=O)(=O)N2CCOCC2)ccc1N1CCCCC1

Overlap with the part before: 2 entries; new compounds follow.
UUG fidelity | molecule
-1 | CO[C@@H]1CN(C)C(=O)c2cc(NS(C)(=O)=O)ccc2OC[C@H](C)N(S(C)(=O)=O)C[C@H]1C
-11 | CCOC(=O)CCC(=O)Nc1cc(S(=O)(=O)N2CCOCC2)ccc1N1CCCCC1
5 | O=C(NC1CCCC1)N1CCCCN2[C@H](CO)[C@H](c3ccc(/C=C/c4ccccc4)cc3)[C@@H]2C1
9 | O=C(CC1CC1)Nc1ccc2c(c1)[C@@H]1C[C@@H](CC(=O)N3CCc4ccccc4C3)O[C@@H](CO)[C@@H]1O2
-7 | CN(C)C(=O)c1cccc(-c2ccc3c(c2)[C@H]2[C@H](CCN2C(=O)c2cnccn2)[C@@H](CO)N3)c1
-4 | C[C@@H]1CN([C@@H](C)CO)C(=O)Cc2cc(N(C)C)ccc2O[C@@H]1CN(C)Cc1ccc(-c2ccccc2)cc1
-16 | CN1c2ccc(-c3ccccc3)cc2[C@H]2[C@H](CCN2C(=O)c2ccncc2)[C@@H]1CO
4 | C[C@@H]1CN([C@H](C)CO)C(=O)c2cccc(NC(=O)C3CC3)c2O[C@H]1CN(C)Cc1ccccc1
3 | C[C@H]1CN([C@@H](C)CO)C(=O)c2cc(NC(=O)Nc3ccc(F)cc3)ccc2O[C@H]1CN(C)Cc1ccc(C(F)(F)F)cc1
5 | COc1ccc(CN(C)C[C@@H]2Oc3ccc(NC(=O)Nc4ccc(F)cc4)cc3CC(=O)N([C@H](C)CO)C[C@H]2C)cc1
-7 | CC(C)NC(=O)Nc1ccc2c(c1)CC(=O)N([C@H](C)CO)C[C@H](C)[C@@H](CN(C)Cc1ccc(C(=O)O)cc1)O2
-12 | O=C(NC[C@H]1[C@@H](c2ccccc2)[C@@H](CO)N1CC1CCCC1)C1CC1
0 | CCCNC(=O)N1[C@H](CNC(=O)c2ccccc2)[C@H](c2ccccc2)[C@@H]1CO
-3 | C[C@H]1CN([C@@H](C)CO)C(=O)c2c(c3ccccc3n2C)-c2ccccc2CO[C@H]1CN(C)Cc1ccncc1
6 | C[C@H]1CN([C@@H](C)CO)C(=O)c2cccc(NC(=O)Nc3ccccc3)c2O[C@H]1CN(C)C(=O)Nc1ccc(F)cc1
11 | C[C@H]1CN([C@@H](C)CO)C(=O)c2cc(NC(=O)Cn3cnnn3)ccc2O[C@@H]1CN(C)C(=O)Nc1ccc(C(F)(F)F)cc1
-8 | O=C(c1cccnc1)N1CC[C@@H]2[C@H]1c1cc(-c3cccc(F)c3)ccc1N[C@@H]2CO

Other results follow.
UUG fidelity | molecule
-11 | CCN(C[C@H]1[C@H](c2ccccc2)[C@H](CO)N1C(=O)C1CC1)C(=O)NC1CCCC1
3 | C[C@H]1CN([C@@H](C)CO)C(=O)CCCn2nncc2CO[C@H]1CN(C)C(=O)Nc1ccccc1F
20 | O=C(CC1CC1)N1[C@@H]2CN(S(=O)(=O)c3ccccc3)c3ccccc3[C@@H]2[C@@H]1CO
2 | CO[C@@H]1CN(C)C(=O)c2ccc(NC(=O)c3nc4ccccc4s3)cc2OC[C@@H](C)N(Cc2ccncc2)C[C@H]1C
2 | OC[C@@H]1[C@H](c2ccc(C3=CCCC3)cc2)[C@H]2CN(Cc3ccncc3)CCCCN12
12 | C[C@@H]1CN([C@@H](C)CO)C(=O)c2cc(NC(=O)Nc3ccc(C(F)(F)F)cc3)ccc2O[C@@H]1CN(C)C
-4 | CC(C)NC(=O)Nc1cccc2c1O[C@@H](CN(C)Cc1ccncc1)[C@@H](C)CN([C@H](C)CO)C2=O
-14 | C[C@H](CO)N1C[C@H](C)[C@@H](CN(C)C(=O)Nc2ccc(C(F)(F)F)cc2)Oc2c(NC(=O)c3nc4ccccc4s3)cccc2C1=O
-2 | CN(C)C(=O)[C@@H]1[C@@H](CO)[C@@H]2Cn3c(ccc(-c4ccccc4)c3=O)[C@H]1N2C(=O)C1CCCC1
-3 | O=C(c1ccc(F)cc1)N1CCCCN2[C@H](CO)[C@H](c3ccc(-c4ccc(F)cc4)cc3)[C@@H]2C1
-13 | C[C@H]1CN([C@@H](C)CO)C(=O)c2cc(NS(=O)(=O)c3cn(C)cn3)ccc2O[C@@H]1CN(C)Cc1ccc(C(=O)O)cc1
40 | O=C(C[C@@H]1CC[C@@H]2[C@H](COC[C@@H](O)CN2S(=O)(=O)c2ccc(F)cc2)O1)N[C@@H]1CCN(Cc2ccccc2)C1
19 | CN(C)C(=O)c1cccc(-c2ccc3c(c2)[C@@H]2[C@@H](CCN2C(=O)C2CC2)[C@@H](CO)N3)c1
4 | C[C@@H]1CN([C@@H](C)CO)C(=O)Cc2cc(NC(=O)Cc3cn(C)c4ccccc34)ccc2O[C@H]1CN(C)C
14 | COCC(=O)N(C[C@H]1N[C@H](CO)[C@H]1c1ccc(-c2ccccc2)cc1)C(C)C

Quoted at random: 3 compounds from above
UUG fidelity | molecule
12 | C[C@@H]1CN([C@@H](C)CO)C(=O)c2cc(NC(=O)Nc3ccc(C(F)(F)F)cc3)ccc2O[C@@H]1CN(C)C
-2 | CN(C)C(=O)[C@@H]1[C@@H](CO)[C@@H]2Cn3c(ccc(-c4ccccc4)c3=O)[C@H]1N2C(=O)C1CCCC1
-4 | CC(C)NC(=O)Nc1cccc2c1O[C@@H](CN(C)Cc1ccncc1)[C@@H](C)CN([C@H](C)CO)C2=O

The results go on.
UUG fidelity | molecule
7 | C[C@H](CO)N1C[C@H](C)[C@@H](CN(C)C(=O)Nc2ccccc2)Oc2ccc(NC(=O)CCN3CCOCC3)cc2CC1=O
-13 | O=C(Nc1ccc(Cl)cc1)N1C[C@@H]2[C@H](c3ccccc31)[C@H](CO)N2C(=O)c1cccnc1
0 | C[C@H](CO)N1C[C@H](C)[C@H](CN(C)S(=O)(=O)c2ccc(Cl)cc2)Oc2ccc(NC(=O)c3ccncc3)cc2CC1=O
56 | O=C(CC(F)(F)F)N1C[C@@H]2[C@H](c3ccccc31)[C@H](CO)N2CC1CCCCC1
-7 | Cc1noc(C)c1NC(=O)Nc1ccc2c(c1)CC(=O)N([C@H](C)CO)C[C@H](C)[C@@H](CN(C)Cc1ccncc1)O2
5 | COc1cccc(S(=O)(=O)Nc2ccc3c(c2)C(=O)N(C)C[C@@H](OC)[C@@H](C)CN(Cc2ccccc2F)[C@H](C)CO3)c1
-2 | CO[C@H]1CN(C)C(=O)c2cc(NC(=O)c3ccc(-c4ccccc4)cc3)ccc2OC[C@@H](C)NC[C@@H]1C
-12 | C[C@@H]1CN([C@H](C)CO)C(=O)c2cccc(NS(=O)(=O)c3cn(C)cn3)c2O[C@@H]1CN(C)C(=O)NC1CCCCC1
-21 | O=C(c1ccncc1)N1CC[C@@H]2[C@H]1c1cc(-c3ccccc3)ccc1N[C@@H]2CO
11 | CCC(=O)N1[C@@H]2CN(S(=O)(=O)c3ccccc3C)c3ccccc3[C@@H]2[C@@H]1CO
-1 | COc1ccc(NC(=O)N2CCCCN3[C@H](CO)[C@H](c4ccc(-c5ccccc5F)cc4)[C@H]3C2)cc1
-1 | C[C@H]1CN([C@@H](C)CO)C(=O)c2cc(NC(=O)Cc3ccccc3)ccc2O[C@H]1CN(C)Cc1ccc(Oc2ccccc2)cc1
-3 | CCC(=O)Nc1ccc2c(c1)C(=O)N(C)C[C@@H](OC)[C@@H](C)CN(C(=O)COC)[C@@H](C)CO2
-1 | C[C@H]1CN([C@@H](C)CO)C(=O)Cc2cc(NC(=O)Nc3cccc4ccccc34)ccc2O[C@@H]1CN(C)C(=O)Nc1ccccc1
-5 | C[C@H](CO)N1C[C@H](C)[C@H](CN(C)C)Oc2c(NC(=O)NC3CCCCC3)cccc2C1=O

Later entries.
UUG fidelity | molecule
-7 | C/C=C/c1ccc([C@H]2[C@@H](CO)N(C(=O)NCCC)[C@@H]2CNC(=O)C2CC2)cc1
-15 | C[C@@H]1CN([C@H](C)CO)C(=O)c2cc(NC(=O)Nc3ccc(C(F)(F)F)cc3)ccc2O[C@H]1CN(C)CC1CCCCC1
-10 | Cc1noc(C)c1S(=O)(=O)Nc1cccc2c1O[C@@H](CN(C)S(=O)(=O)c1ccc(Cl)cc1)[C@@H](C)CN([C@H](C)CO)C2=O
16 | O=C(NCC1CC1)[C@@H]1[C@@H](CO)[C@@H]2Cn3c(ccc(-c4cccc(F)c4)c3=O)[C@@H]2N1CC1CC1
-4 | COc1ccc(S(=O)(=O)Nc2ccc3c(c2)[C@H]2C[C@H](CC(=O)O)O[C@@H](CO)[C@H]2O3)cc1
10 | O=C(NCCc1ccccc1)[C@H]1[C@H](CO)[C@H]2Cn3c(cccc3=O)[C@@H]1N2C(=O)C1CCCC1
15 | O=C(CC(F)(F)F)N1C[C@H]2[C@@H](c3ccccc31)[C@@H](CO)N2C(=O)Cc1ccccc1
19 | C[C@@H]1CN([C@@H](C)CO)C(=O)c2cccc(NC(=O)Nc3ccccc3)c2O[C@H]1CN(C)C(=O)Nc1ccc(F)cc1
2 | OC[C@@H]1[C@@H](c2ccc(C#CC3CCCC3)cc2)[C@@H]2CN(CCC(F)(F)F)CCCCN12
7 | C[C@H](CO)N1C[C@H](C)[C@H](CN(C)S(=O)(=O)c2cn(C)cn2)OCc2cn(nn2)CCCC1=O
-10 | CNC[C@@H]1Oc2ccc(NS(=O)(=O)c3ccccc3)cc2C(=O)N([C@H](C)CO)C[C@@H]1C
-4 | C[C@@H]1CN([C@H](C)CO)C(=O)Cc2cc(NC(=O)CCN3CCOCC3)ccc2O[C@@H]1CN(C)S(=O)(=O)c1ccccc1
7 | C[C@H]1CN([C@@H](C)CO)C(=O)c2cc(NS(=O)(=O)c3ccc(Cl)cc3)ccc2O[C@H]1CN(C)C(=O)NC1CCCCC1
9 | CCCNC(=O)[C@@H]1[C@@H](CO)[C@@H]2Cn3c(ccc(/C=C/c4ccccc4)c3=O)[C@H]1N2CCC
15 | O=C(Nc1ccc(F)cc1)N1C[C@H]2[C@@H](c3ccccc31)[C@H](CO)N2Cc1ccccc1Cl

(next part)
UUG fidelity | molecule
6 | CO[C@@H]1CN(C)C(=O)c2cc(NC(=O)c3ccc(F)cc3)ccc2OC[C@H](C)N(C(=O)c2ccc(F)cc2)C[C@@H]1C
-9 | O=C(c1ccc2c(c1)OCO2)N1CC[C@@H]2[C@H](CO)Nc3ccc(-c4ccc(F)cc4)cc3[C@@H]21
5 | CO[C@@H]1CN(C)C(=O)c2ccc(NC(=O)c3ccccc3F)cc2OC[C@@H](C)N(C(=O)c2ccccc2F)C[C@@H]1C
9 | C[C@@H]1CN([C@@H](C)CO)C(=O)c2cc(NS(=O)(=O)c3ccc(Cl)cc3)ccc2O[C@@H]1CN(C)Cc1ccc2c(c1)OCO2
-7 | COCC(=O)Nc1ccc2c(c1)C(=O)N(C)C[C@H](OC)[C@H](C)CN(CC1CC1)[C@@H](C)CO2
-9 | CN1c2ccc(-c3cccc(C#N)c3)cc2[C@@H]2[C@@H](CCN2S(=O)(=O)c2ccccc2)[C@H]1CO
-10 | C[C@H](CO)N1C[C@H](C)[C@@H](CN(C)Cc2ccc(-c3ccccc3)cc2)Oc2ccc(N(C)C)cc2C1=O
40 | CC(=O)N1[C@H](CO)[C@@H](c2ccccc2)[C@@H]1CN(C(=O)c1cccc(F)c1)C(C)C

Shown with each value named: part of the list above
CO[C@@H]1CN(C)C(=O)c2cc(NC(=O)c3ccc(F)cc3)ccc2OC[C@H](C)N(C(=O)c2ccc(F)cc2)C[C@@H]1C
  UUG fidelity = 6
CN1c2ccc(-c3cccc(C#N)c3)cc2[C@@H]2[C@@H](CCN2S(=O)(=O)c2ccccc2)[C@H]1CO
  UUG fidelity = -9

Compound activity deposited in PubChem by Broad Institute.

Some of the compounds tested; rates above refer to the full screens.
